From PubChem
RN4220 kill – S. aureus RN4220 growth inhibition; OD600, 16 h; inhibition, % (test concentration not listed); hit rate 0.33% among 330,000;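 active means z-score of -3 or lower and OD600 up to 0.18 on both plates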;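 further: plate controls were untreated cells for no effect and reference antibiotic for full effect; stock transfer was 100 nL into about 80 µL; one replicate is shown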
BJeLR lethal – BJeLR cell viability loss | BJeLR (HRASV12) viability, CellTiter-Glo ATP luminescence, 48 h; reference of the scale not given here | inhibition, % (concentration not given with the values) | hit rate 0.17% among 300,000;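 active means replicate mean above 50%; inconclusive means above 50% but judged a plate artefact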;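 further: 50 nL library stock added to about 25 µL; numbers are from one replicate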
Autofluor counter – counter-screen for toxin protease inhibitors: compound fluorescence; hit rate 3.1% among 360,000; fluorescence intensity (concentration not given with the values); compound autofluorescence counterscreen, microsphere flow cytometry; active compounds read high; AID 624483;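 active means at least 3 SD above the mean of all compounds, about 16000 in these data; inconclusive means too few beads counted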;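 further: 100 nL of 1 mM stock went into each well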
PrP UTR inh – suppresses PrP 5' UTR mRNA reporter expression; cell-based PrP 5' UTR mRNA reporter, plate reader; inhibition, % (test concentration not listed); hit rate 0.35% among 340,000;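 active means every replicate at 50% or more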;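 further: 0 = median of the neutral control wells; tested in H4 reporter cells; numbers are from one replicate; inactives centre near -14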
Sa ugtP lethal – growth inhibition of S. aureus ugtP deletion strain | S. aureus RN4220 ugtP deletion, OD600 growth, 16 h; some inactives read as strong as hits | growth inhibition, % (no concentration beside the values) | hit rate 0.54% among 330,000 | AID 1259309;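 active means z-score under -3 and OD600 up to 0.15 on both plates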;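 further: plate controls were untreated wells for no effect and antibiotic for full effect; wells of about 80 µL received 100 nL stock; the first replicate is given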
Mtb hypoxia inh – inhibitors of hypoxia-regulated fluorescent reporter in Mycobacterium tuberculosis. M. tuberculosis hypoxia-regulated fluorescent reporter, fluorescence. fluorescence inhibition, % (test concentration not listed). hit rate 0.1% among 300,000. AID 1159583;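 active means 35 to 45% if threefold the growth effect, above 45% if 1.5-fold the growth effect; inactive means the rest, general growth blockers included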;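 further: wells of about 50 µL received 100 nL stock; 0% = vehicle wells and 100% = reference inhibitor wells; whole bacteria with a GFP reporter of the hypoxia response; strong numbers were not always called active; many hits fall short of the cut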
Mtb hypoxia inh growth – recorded beside Mtb hypoxia inh, whose call it bears; growth inhibition, %; measured here: M. tuberculosis growth (absorbance);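 0% = vehicle and 100% = reference antibiotic; read after six days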
Starred values were filed as active, the others as inactive; ? = inconclusive; nt = not tested or not shown.

SMILES	RN4220 kill	BJeLR lethal	Autofluor counter	PrP UTR inh	Sa ugtP lethal	Mtb hypoxia inh	Mtb hypoxia inh growth
O=C(NN=Cc1c[nH]c2ccccc12)C1COc2ccccc2O1 (configuration not stated)	0.6	nt	nt	nt	1.4	9.1	10.4
COc1ccc(OC)c(NC(=O)CSc2ncccn2)c1	5.8	-2.2	?	-27.2	8.2	16.9	5.6
O=C(Nc1sc2c(c1C(=O)NCC1CCCO1)CCCC2)c1cccs1 (configuration not stated)	5.2	-13.0	11001	4.6	-27.7	-11.6	-4.4
Cc1ccc2oc3c(c(=O)c2c1)C(c1cccs1)N(CCCN(C)C)C3=O (configuration not stated)	-12.6	2.8	5513	-19.0	-2.2	-1.8	6.6
CCN(CC)CCN1C(=O)C(=O)/C(=C(/O)c2ccncc2)C1c1ccccc1 (configuration not stated)	1.5	9.8	2695	-11.3	-7.1	nt	nt
CN(Cc1ccccc1)C(=O)c1ccc(NC(=O)Cc2cccc(NC(=O)C3CCN(C(=O)C4CCCC4)CC3)c2)cc1	-10.5	nt	3615	-16.1	1.4	12.0	2.4
O=C(Nc1ccccc1Cl)N(Cc1nc2ccccc2c(=O)[nH]1)Cc1cccs1	6.1	-4.3	2001	-7.4	-3.0	-3.9	-19.0
CN(Cc1ccccc1Cl)C(=O)c1cc2ccccc2o1	5.9	1.0	2987	-6.0	5.1	-6.7	-2.3
Cc1nnc(NC(=O)c2csc3c2CCC(C)C3)s1 (configuration not stated)	-1.9	7.6	4283	-31.4	-16.8	0.3	3.7
CCOc1ccc(NC(=O)CN(C)C(=O)c2cc(C)oc2C)cc1OCC	-0.2	2.7	5588	-11.6	6.1	6.6	12.3
COC(=O)c1ccc(CSc2cc(C)c3ccccc3n2)o1	5.3	-1.3	4659	-16.9	5.6	-0.9	-2.6
CCOc1ccc(CCNC(=O)c2cc3sccc3n2C)cc1OCC	8.7	1.5	11107	-3.0	0.1	0.5	3.4
Cc1nc2ccccc2nc1CSc1nnc(N)s1	2.5	4.8	2623	-15.5	-3.8	nt	nt
Cc1c(C(=O)N/N=C/c2ccccc2)[nH]c2ccc(Cl)cc12	nt	-13.5	2465	-52.5	nt	nt	nt
COc1cc2cc(CCCOC(=O)c3ccc(F)cc3)oc(=O)c2cc1OC	7.8	nt	3971	-7.0	1.6	-0.2	3.6
CC(C)(C)c1ccc(NC(=O)N2CCCN(c3ccc([N+](=O)[O-])cn3)CC2)cc1	3.9	2.9	3869	-10.6	5.4	0.4	-6.9
COC(=O)c1ccccc1S(=O)(=O)N1CCC(C(=O)OC(C)C(=O)N(C)Cc2ccccc2)CC1 (configuration not stated)	3.6	nt	4888	-25.0	10.3	3.1	4.4
O=C(CCC(=O)N(c1ccccc1)C(C(=O)NC1CCCC1)c1ccncc1)Nc1cccnc1 (configuration not stated)	4.9	-5.0	4108	-6.0	-4.0	16.3	5.5
COc1ccc(-c2nc3c(c(=O)n(C)c(=O)n3C)n2CC2CC(c3ccccc3)=NO2)cc1OC (configuration not stated)	9.6	15.9	2389	-9.6	-24.4	-3.8	5.4
CC(C)COC(=O)c1ccccc1N1C(=O)C2C3CCC(C3)C2C1=O (configuration not stated)	1.8	12.2	2496	-8.7	5.9	10.5	6.1

9 compounds out of the list, sorted by length of the SMILES, rising:
SMILES	RN4220 kill	BJeLR lethal	Autofluor counter	PrP UTR inh	Sa ugtP lethal	Mtb hypoxia inh	Mtb hypoxia inh growth
Cc1nc2ccccc2nc1CSc1nnc(N)s1	2.5	4.8	2623	-15.5	-3.8	nt	nt
COc1ccc(OC)c(NC(=O)CSc2ncccn2)c1	5.8	-2.2	?	-27.2	8.2	16.9	5.6
O=C(Nc1sc2c(c1C(=O)NCC1CCCO1)CCCC2)c1cccs1 (configuration not stated)	5.2	-13.0	11001	4.6	-27.7	-11.6	-4.4
CC(C)COC(=O)c1ccccc1N1C(=O)C2C3CCC(C3)C2C1=O (configuration not stated)	1.8	12.2	2496	-8.7	5.9	10.5	6.1
Cc1ccc2oc3c(c(=O)c2c1)C(c1cccs1)N(CCCN(C)C)C3=O (configuration not stated)	-12.6	2.8	5513	-19.0	-2.2	-1.8	6.6
CCN(CC)CCN1C(=O)C(=O)/C(=C(/O)c2ccncc2)C1c1ccccc1 (configuration not stated)	1.5	9.8	2695	-11.3	-7.1	nt	nt
COc1ccc(-c2nc3c(c(=O)n(C)c(=O)n3C)n2CC2CC(c3ccccc3)=NO2)cc1OC (configuration not stated)	9.6	15.9	2389	-9.6	-24.4	-3.8	5.4
COC(=O)c1ccccc1S(=O)(=O)N1CCC(C(=O)OC(C)C(=O)N(C)Cc2ccccc2)CC1 (configuration not stated)	3.6	nt	4888	-25.0	10.3	3.1	4.4
CN(Cc1ccccc1)C(=O)c1ccc(NC(=O)Cc2cccc(NC(=O)C3CCN(C(=O)C4CCCC4)CC3)c2)cc1	-10.5	nt	3615	-16.1	1.4	12.0	2.4

Next compounds.
SMILES	RN4220 kill	BJeLR lethal	Autofluor counter	PrP UTR inh	Sa ugtP lethal	Mtb hypoxia inh	Mtb hypoxia inh growth
Cn1c(=O)c2c(ncn2CC(=O)OCC(=O)Nc2ccc(Cl)cc2)n(C)c1=O	4.4	11.6	9461	-13.5	-2.4	12.7	7.4
COc1ccc(NCC(=O)N/N=C/c2cc([N+](=O)[O-])ccc2N2CCCC2)cc1	nt	-5.4	4410	-23.6	nt	nt	nt
Nc1nonc1-n1nnc(C(=O)N/N=C/C2CC=CCC2)c1CSc1ccccc1 (configuration not stated)	nt	1.6	4449	-14.6	nt	nt	nt
COc1ccc(NC(=O)c2cc3ccccc3o2)cc1OC	8.0	7.1	3570	-47.7	6.7	8.5	0.4
Clc1ccc(Sc2cnc3ccccc3n2)cc1	0.6	1.5	3260	-30.5	13.4	7.5	8.9
CC(=NO)C(C)=NNC(=O)c1ccccn1	3.3	nt	nt	nt	11.1	7.4	10.7
CC(Oc1coc(CN2CCN(C(=O)c3ccco3)CC2)cc1=O)c1ccccc1 (configuration not stated)	1.5	-1.4	5538	-22.9	3.9	2.5	1.9
CCOc1cc(/C=C2/SC(=S)NC2=O)ccc1OC(=O)c1ccco1	nt	11.1	3426	-3.8	nt	nt	nt
CCCc1ncc(C(O)c2cccc(OC)c2OC)n1C (configuration not stated)	4.6	-8.2	5141	-7.9	10.3	0.2	2.4
O=C(NCc1ccco1)C1CCCN(S(=O)(=O)c2ccc(Br)cc2)C1 (configuration not stated)	5.9	0.5	4390	-20.4	-0.7	3.9	0.8
CCOC(=O)c1cc2c(=O)c3ccccc3oc2nc1C	4.9	12.0	3600	-50.3	-3.4	11.0	-0.3
Cc1ccccc1-n1ncc2c1CC(C)(C)CC2NC(=O)CCn1cncn1 (configuration not stated)	0.2	-3.4	5348	-14.4	-1.4	0.7	14.6
CN(Cc1ccccc1)S(=O)(=O)c1ccc(Cl)c(C(=O)NCc2cccnc2)c1	-1.2	10.6	?	-13.7	-5.8	1.5	11.3
CC(=O)NC(Cc1ccccc1)C(=O)OCC(=O)c1ccc(Br)cc1 (configuration not stated)	1.7	1.2	2516	-18.9	6.0	-4.4	-5.2
CCOC(CNC(=O)c1cccn2c(=O)c3c(C)c(C)sc3nc12)OCC	8.6	1.6	3852	2.3	-1.2	-7.3	11.3
O=C(NNC(=O)c1c(O)c2ccccc2[nH]c1=O)c1ccccc1Br	13.6	5.1	5244	-31.0	-3.1	8.2	-5.6
CCc1ccccc1S(=O)(=O)Cc1ccc(C(=O)NC2CCCC2)o1	6.0	-2.3	5437	-5.2	9.7	6.0	2.9
CCOC(=O)N/N=C\c1ccc([N+](=O)[O-])o1	nt	-0.5	8210	-34.0	nt	nt	nt
CC(c1ccccc1)n1c(SCC(=O)N2CC(=O)Nc3ccccc32)nc2ccccc2c1=O (configuration not stated)	-5.0	-11.5	2660	2.1	-10.3	-2.8	7.0
COc1ccc(C(=O)N2CCN(Cc3ccccc3C)CC2)cc1OC	3.6	4.3	4733	-1.6	6.0	nt	nt
C=CCNC(=S)NN=Cc1ccc(C)cc1C	15.1	nt	nt	nt	1.1	0.3	-7.7
c1ccc(OCCOc2ccccc2-c2nnco2)cc1	3.1	1.7	2780	-35.0	4.0	nt	nt
O=C(OCc1ccc(Br)cc1)c1ccncc1	3.7	7.6	2315	4.6	12.5	8.7	11.4
CC(C)Sc1nc(C(F)(F)F)cc(=O)n1-c1ccccc1	4.3	8.6	20162*	0.9	34.9	9.2	13.7
CCCn1ncc(CN2CCC(C(=O)Nc3cccc(-c4cccc(F)c4)c3)CC2)c1C	-7.4	-1.2	4848	2.2	-3.8	6.0	5.4
CCCNC1=C(N(C(C)=O)c2cccc(F)c2)C(=O)c2ccccc2C1=O	21.5	44.2	2006	34.4	19.8	8.5	4.8
Cc1cccc(OCC(=O)NCCCNC(=O)c2ccco2)c1	4.5	5.4	3957	-31.6	6.9	-0.3	9.1
COn1c(SC(C)C)nc2ccccc2c1=O	4.8	10.0	4222	-21.3	13.6	2.8	-1.7
CCOc1cc(C2c3c(-c4ccccc4)n[nH]c3C(=O)N2c2ccc(C(=O)O)cc2)ccc1O (configuration not stated)	3.6	0.8	4125	-19.3	3.7	9.3	3.7
Cc1c(NS(=O)(=O)c2cccc(C(=O)NC(C)c3ccccc3)c2)c(=O)n(-c2ccccc2)n1C (configuration not stated)	-3.7	nt	4364	-17.3	-0.9	12.1	7.6
O=C(O)CN(Cc1ccco1)S(=O)(=O)c1ccc(F)cc1	0.2	1.0	3899	-14.5	1.3	-82.9	-25.4
CC(=O)Nc1cccc(NC(=O)c2cc([N+](=O)[O-])ccc2N2CCCCC2)c1	6.5	nt	5138	-11.9	-3.2	2.5	5.6
Cn1nnc2cc(C(=O)N3CCSCC3)ccc21	1.1	nt	4536	-7.6	0.9	nt	nt
COC(=O)C1=C(c2ccc(C(C)=O)cc2)C[C@@H]2CC[C@H]1N2C(=O)NCc1ccc(C(F)(F)F)cc1	-25.0	nt	2998	2.9	-3.4	-4.5	8.5
O=C(Cc1ccccc1)Nc1ccnn1C1CCN(Cc2ccc(CO)o2)CC1	2.4	-1.1	5306	-19.7	2.3	5.0	3.4
Cc1coc2cc3oc(=O)c(CCC(=O)N4C[C@H]5C[C@@H](C4)c4cccc(=O)n4C5)c(C)c3cc12	2.0	-1.1	5679	-17.8	1.9	nt	nt
COc1ccc(OC)c(C=NNC(=O)c2ccc(NS(=O)(=O)c3cccs3)cc2)c1	1.8	nt	3855	nt	-1.1	0.5	5.7
CC(NC(=O)c1cccc(S(=O)(=O)N2CCCCCC2)c1)c1ccccc1 (configuration not stated)	-2.0	nt	nt	-23.3	4.4	5.7	1.6
Nc1nc(SCc2ccc(Cl)cc2Cl)c2ncn(C3OC(CO)C(O)C3O)c2n1 (configuration not stated)	4.6	nt	3823	-20.9	-9.9	13.2	12.6
Cc1nc2sc(C(c3ccc(Cl)cc3)N3CCN(C(=O)c4ccco4)CC3)c(O)n2n1 (configuration not stated)	0.6	nt	nt	-7.4	0.3	nt	nt
CC(C)(C)c1ccc(C(=O)OC/C(O)=C(\C#N)c2nc3ccccc3s2)cc1	78.1	-3.0	2731	-0.8	85.1*	-2.3	3.6
COc1ccc(S(=O)(=O)Nc2cccc3c2O[C@H](CN(C)C(=O)Nc2ccccc2)[C@@H](C)CN([C@H](C)CO)C3=O)cc1	4.0	nt	3926	-13.4	5.6	4.6	5.2
Cc1cc(C)cc(NC(=S)NCc2ccc(S(N)(=O)=O)cc2)c1	-1.1	-7.8	4236	-18.7	-4.4	-7.1	5.6
C=CCNC(=O)c1ccc(-c2nc(-c3ccccc3)cs2)cc1	1.9	-6.6	5685	-77.4	8.2	18.6	10.7
Cn1c(=O)c2c(nc(SCCN3CCCCC3)n2Cc2ccc(Cl)cc2)n(C)c1=O	4.6	1.2	3109	-8.0	7.8	nt	nt
Cn1c(=NN=Cc2ccc(Cl)c([N+](=O)[O-])c2)sc2ccccc21	6.6	nt	nt	nt	-13.1	-2.3	8.4
COc1ccc(-c2cc(C(=O)N/N=C(\C)c3cccnc3)c3ccccc3n2)cc1	nt	-3.5	?	-28.7	nt	nt	nt
CCC(C)c1ccc(OCc2ccc(C(=O)O)o2)cc1 (configuration not stated)	4.6	-8.4	3473	-52.5	-9.9	5.9	5.1

Hits appear at their usual frequency; about 4% have a hit in one of these screens.
